KCNQ2 block: KCNQ2 potassium channel inhibitors, primary screen, cell-based, CHO-K1, FluxOR thallium flux, B-score (AID 2156); 1.1% of 310,000 active; B-score at 10 µM; 20 min; stronger effect = lower value; only compounds with negative scores are shown here; some inactives read as strong as hits; O88943;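 active = fluorescence ratio B-score at most minus 3 library SDs, with starting brightness B-score within 2 library SDs, cut at about -5.5 in these data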
Target sequence (O88943 whole entry, looked up): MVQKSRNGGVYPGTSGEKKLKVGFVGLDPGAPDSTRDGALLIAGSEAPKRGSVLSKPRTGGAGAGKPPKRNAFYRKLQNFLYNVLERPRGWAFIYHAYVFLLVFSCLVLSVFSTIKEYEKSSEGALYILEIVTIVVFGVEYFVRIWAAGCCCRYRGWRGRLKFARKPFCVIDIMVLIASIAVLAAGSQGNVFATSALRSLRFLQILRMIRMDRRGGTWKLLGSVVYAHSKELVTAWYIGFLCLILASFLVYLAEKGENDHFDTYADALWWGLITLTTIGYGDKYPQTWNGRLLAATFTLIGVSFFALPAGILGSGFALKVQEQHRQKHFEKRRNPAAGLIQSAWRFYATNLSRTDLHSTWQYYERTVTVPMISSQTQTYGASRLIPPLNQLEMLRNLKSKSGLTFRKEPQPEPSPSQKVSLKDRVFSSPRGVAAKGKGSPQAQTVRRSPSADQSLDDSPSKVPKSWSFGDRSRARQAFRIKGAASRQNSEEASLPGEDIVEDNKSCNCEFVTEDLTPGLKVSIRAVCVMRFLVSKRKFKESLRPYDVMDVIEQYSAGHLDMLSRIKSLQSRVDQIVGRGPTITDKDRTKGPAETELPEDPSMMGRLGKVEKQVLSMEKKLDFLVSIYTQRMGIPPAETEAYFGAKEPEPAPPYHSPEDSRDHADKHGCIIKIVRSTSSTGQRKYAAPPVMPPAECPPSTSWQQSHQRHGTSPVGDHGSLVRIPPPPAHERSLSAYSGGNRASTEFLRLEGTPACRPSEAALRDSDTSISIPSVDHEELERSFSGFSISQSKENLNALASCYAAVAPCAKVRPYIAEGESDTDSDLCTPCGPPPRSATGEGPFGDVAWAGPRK
KCNQ2 block baseline: also measured in KCNQ2 block; calls as there; B-score; measured here: initial fluorescence intensity artifact check;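 brightness before thallium and not channel activity; 0 = typical well and far values either way flag optical interference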
Active calls of the source: *; i = inactive. This is a subset. The share of hits here may be higher or lower than overall.

mol | KCNQ2 block | KCNQ2 block baseline
COc1ccc(C(=O)/C=C/NCc2ccc(C)cc2)cc1 | i | 1.2
COc1ccc(N=C2SC(CC(=O)Nc3cccc(Cl)c3)C(=O)N2Cc2ccco2)cc1 (stereo not given) | i | 0.32
COc1ccc(S(=O)(=O)NCC2CCCN(C(=O)c3ccco3)C2)cc1 (stereo not given) | i | 0.65
O=C(CCSc1nc(-c2ccco2)cc(C(F)(F)F)n1)Nc1ccc2c(c1)OCO2 | i | -1.4
CN(C)c1ccc(C(=O)c2ccc(N(C)C)c3ccccc23)cc1 | i | -0.84
CC1CC(C)CN(C(=O)CNC(=O)c2ccc3ccccc3c2)C1 (stereo not given) | i | 1.2
CC1=CC(C)(C)NC(=S)N1c1cc(C)cc(C)c1 | i | -1.6
CCN(CC)S(=O)(=O)c1ccc(/C=C/C(=O)Nc2ccc(N3CCOCC3)cc2)cc1 | i | -0.85
Oc1sc(C=Nc2ccc(F)cc2)c2ccccc12 | i | 3.1
Cc1nc2ccc(NC(=O)Cc3ccccc3F)cc2s1 | i | 2
COc1ccc(NC(=O)c2cccnc2N2CCCC2)cc1 | i | -0.73
C/C(CC(=O)Nc1ccc(Cl)c(C(F)(F)F)c1)=N\NC(=O)c1ccccc1O | i | -0.06
CC(C(=O)N1CCOCC1)N1c2cccc3cccc(c23)S1(=O)=O (stereo not given) | i | -1.1
Brc1ccc(-c2cn3c(n2)CCc2ccc4cccnc4c2-3)cc1 | i | -0.47
O=C(Nn1cnnc1)c1ccc(F)cc1 | i | 1.3
COc1ccccc1NC(=O)COc1cccc2c1CCNC2=O | i | 1.6
CC(NC(=O)C1CCN(C(=O)[C@@H]2Cc3ccccc3CN2)CC1)c1ccccc1 (stereo not given in full) | i | 0.75
Cn1c(CCC(=O)Nc2ccc(F)cc2)nc2cc(S(=O)(=O)N3CCOCC3)ccc21 | i | 0.41
COc1ccc(-n2ncc(C(=O)NC3CC3)c2C2CCN(C(=O)OC(C)(C)C)CC2)cc1 | i | -0.72
Cc1cc(=O)[nH]c(SCC(=O)Nc2ccc(S(N)(=O)=O)cc2)n1 | i | -0.24
O=C(NCc1ccco1)C(c1ccco1)N(C(=O)Cn1nnc2ccccc21)c1ccc2c(c1)CCC2 (stereo not given) | i | -0.13
CC(NC(=O)C1CCC1)c1ccccc1 (stereo not given) | i | -2.2
COCCN(C(=O)CN1CCc2ccccc2C1)c1c(N)n(Cc2ccccc2)c(=O)[nH]c1=O | i | 0.54
Cc1ccc(C(=O)NNC(=O)/C=C\C(=O)O)cc1 | i | 1.5
Cc1cc(C)c(S(=O)(=O)N2CCOC2CNC(=O)C(=O)NCCCN2CCOCC2)c(C)c1 (stereo not given) | i | -0.56

One compound at a time (already shown). Order of screens: KCNQ2 block | KCNQ2 block baseline
`O=C(CCSc1nc(-c2ccco2)cc(C(F)(F)F)n1)Nc1ccc2c(c1)OCO2` is listed as i | -1.4
`Cn1c(CCC(=O)Nc2ccc(F)cc2)nc2cc(S(=O)(=O)N3CCOCC3)ccc21` is listed as i | 0.41

More compounds follow:
mol | KCNQ2 block | KCNQ2 block baseline
CCOC(=O)c1sc(Nc2ccccc2Cl)nc1C | i | 0.74
Cc1cn(CCOc2ccc(Cl)cc2)c(=O)[nH]c1=O | i | -0.29
COC(=O)C(O)(CC(=O)Nc1ccc(OC(F)(F)F)cc1)C(F)(F)F (stereo not given) | i | 0.06
CC(C)C[C@@H](NC(=O)C1CCC(CNC(=O)[C@H](Cc2ccccc2)NC(=O)OC(C)(C)C)CC1)C(=O)O (stereo not given in full) | i | 0.05
Cc1cc(C)c(S(=O)(=O)N2CCOC2CNC(=O)C(=O)NCCCN2CCCC2=O)c(C)c1 (stereo not given) | i | -0.39
COc1ccc(Cl)cc1NC(=O)CN(C)CC(=O)Nc1ccc(S(N)(=O)=O)cc1 | i | -0.09
CCOc1ccc(C(=O)NC2CCN(C(=O)N3CCCC3)CC2)cc1 | i | -2.2
COc1ccc(C)cc1NC(=O)c1cccc(C(=O)Nc2cc(C)ccc2OC)c1 | i | -0.53
Fc1cccc(NC(=S)N2CCN(c3ccccn3)CC2)c1 | i | 3.5
Cc1ccc(OCCOc2ccc(Cl)cc2Cl)c([N+](=O)[O-])n1 | i | 0.33
Cn1c(=O)c(=O)n(C)c2cc(S(=O)(=O)N3CCC(Cc4ccccc4)CC3)ccc21 | i | -0.29
COc1ccc(CCN2C(=O)C(Oc3ccccc3C)C2c2ccc3c(c2)OCO3)cc1 (stereo not given) | i | 0.09
COc1ccc(F)c(CN2CCN(CCc3ccccc3)C(CCO)C2)c1 (stereo not given) | i | 1.2
CC1(C)OC(=O)N(CCC(=O)Nc2cccc(F)c2)C1(C)O (stereo not given) | i | 1.3
CCOC(=O)N1CCN(S(=O)(=O)c2ccc3[nH]c(=O)oc3c2)CC1 | i | 0.87
COc1ccccc1CN(C)CC(=O)Nc1cccc2ccccc12 | i | -1.7
CCCC1=C(C(=O)OCC)C(c2c(C)nn(-c3ccccc3)c2Cl)C(C#N)=C(N)O1 (stereo not given) | i | -0.28
CN1CCN(C(c2cccc(Cl)c2)c2ccccc2Cl)CC1 (stereo not given) | i | 0.29
Cc1ccc(NC(=O)CSc2nnc(C3COc4ccccc4O3)o2)c(Cl)c1 (stereo not given) | i | 1.8
Cn1nc(-c2ccc(C(=O)N3CCN(CCO)CC3)cc2)c2ccccc2c1=O | i | 1.9
Cc1cc(C(=O)CSc2nnnn2-c2ccc(Cl)cc2)c(C)n1CC1CCCO1 (stereo not given) | i | 0.94
COCCNC(=O)CN1C(=O)NC2(CCOc3ccccc32)C1=O (stereo not given) | i | -1.9
C=CCSc1nc2ccccc2n1S(=O)(=O)c1ccc(Cl)cc1 | i | -0.84
Cc1ccccc1C(=O)Nc1cc(NC(=O)c2ccccc2C)cc(C(=O)O)c1 | i | 0.68
CC(=O)Nc1ccc(SC[C@H](CC(C)C)N2CCN(CCc3ccccc3)CCC2=O)cc1 | i | -0.99

New compounds follow
mol | KCNQ2 block | KCNQ2 block baseline
O=C(Cn1ncc2c([nH]c3ccccc32)c1=O)Nc1ccc(CN2CCCCC2)cc1 | i | -1.8
Cc1ccc(NC(=O)c2ncn[nH]2)cc1 | i | 2
Cc1ccc(NC(=O)CC2NCCN(Cc3ccccc3)C2=O)cc1 (stereo not given) | i | 1.5
O=C(CC1NCCc2ccccc21)Nc1ccc(Oc2ccccc2)cc1 (stereo not given) | i | 0.55
CCN(CC)S(=O)(=O)c1ccc(-c2csc(C)n2)s1 | i | 1.3
CCOC(=O)c1ccc(N2CCOCC2)c(NC(=O)c2c(-c3ccccc3)noc2C)c1 | i | -0.03
O=C(O)C1CC=CCC1C(=O)NCCc1cccc(Cl)c1 (stereo not given) | i | 0.04
Cc1cccc2cc(C(c3nnnn3Cc3ccccc3)N3CCN(c4ccccc4)CC3)c(=O)[nH]c12 (stereo not given) | -9* | 0.22*
COc1ccc(N2CCN(C(=O)c3ccc(CNS(=O)(=O)c4cc(C)ccc4C)cc3)CC2)cc1 | i | 0.18
CCn1c(=O)c(CCC(=O)N2CCN(c3ccccn3)CC2)c(C)c2c(C)nn(-c3cccc(C)c3)c21 | i | 0.15
COc1cccc(C(c2nnnn2Cc2ccc(F)cc2)N2CCC(C(N)=O)CC2)c1OC (stereo not given) | i | -0.29
CCn1c2ccccc2c2cc(C3N=C(N)Nc4nc5ccccc5n43)ccc21 (stereo not given) | i | 1.4
C=CCn1c(=O)c(C(=O)Nc2cc(C)ccn2)c(O)c2ccccc21 | i | 0.03
O=C(c1ccc2[nH]c(=O)c(=O)[nH]c2c1)N1CCN(c2ccccc2)CC1 | i | 2.8
CCc1cccc(NC(=O)c2ccc(CNc3c(N4CCCC4)c(=O)c3=O)cc2)c1 | i | 0.1
COc1ccccc1-n1c(C)cc(/C=C2\C(=N)N3N=C(CC(=O)N4CCOCC4)SC3=NC2=O)c1C | i | 1.2
O=C(COC(=O)c1c2ccccc2cc2ccccc12)NCC(F)(F)F | i | 0.64
O=[N+]([O-])c1ccc(SCc2ccncc2)nc1 | i | 1.1
COCC(=O)Nc1nc2n(n1)C(c1ccccc1)CC(c1ccc(OC)cc1)N2 (stereo not given) | i | 0.68
CCOC(=O)C1C(=O)C=C(C)C(C(=O)OCC)C1c1cccc([N+](=O)[O-])c1 (stereo not given) | i | -1.5
COc1cc(OC)cc(-c2nc3ccccc3c(=O)n2OC(=O)c2ccc(C)c(C)c2)c1 | i | 0.77
CCCCOC(=O)C1CCC[C@@H](C)N1 (stereo not given in full) | i | -0.76
CC(=O)NC1(C(F)(F)F)NC(=O)N(CCc2ccccc2)C1=O (stereo not given) | i | -0.12
CCOc1ccc(NC(=O)CNC(=O)c2ccc([N+](=O)[O-])cc2)cc1 | i | 0.09
COCCCN(CCNC(=O)c1ccc(NC2=NC3CS(=O)(=O)CC3S2)cc1)Cc1ccco1 (stereo not given) | i | 0.25

Carrying on:
mol | KCNQ2 block | KCNQ2 block baseline
O=C(COc1ccc([N+](=O)[O-])cc1)N(C1CCCCC1)C1CCS(=O)(=O)C1 (stereo not given) | i | -0.06
CCOc1cc(/C=C2\SC(=N)N(c3nonc3N)C2=O)ccc1OCCN1CCOCC1 | i | 0.01
O=C(CCCc1c[nH]c2ccccc12)NCc1cccs1 | i | 2.9
CCOC(=O)c1cccc(P(C)(C)=O)c1 | i | 0.9
COc1ccc(C)cc1NC(=O)c1cccc(-c2ccc(OC(C)=O)cc2)c1 | i | -1.3
COc1cc(-c2nc3cnccc3n2C)cc(OC)c1OC | i | 0.61
CC1CCN(C(=O)CCc2ccc(S(=O)(=O)NC(C)(C)C)cc2)CC1 | i | 0.84
C#CCN1C(=O)C2(OCCO2)c2ccccc21 | i | -0.49
COc1ccc(C(=O)N/N=C/c2cccc3cccnc23)cc1 | i | -0.01
CCN1CCN(c2ncc(C(=O)Nc3cc(Cl)ccc3OC)c3ccccc23)CC1 | i | -2.7
Cn1c(=O)c(/C=C/c2ccc(F)cc2)nc2ccccc21 | -5.9* | 0.1*
C=CCn1c(SCc2nc3ccccc3[nH]2)nnc1-c1ccncc1 | i | -1.5
CCOC(=O)c1[nH]cnc1N=Nc1c(O)ccc2ccccc12 | i | 0.37
Cc1[nH]c(=O)[nH]c(=O)c1S(=O)(=O)N1CCCC(C(=O)NCCc2ccccc2)C1 (stereo not given) | i | -1.4
C=CCn1c(C)cc(C(=O)CSc2nnc(-c3cccc(S(=O)(=O)N(CC)CC)c3)o2)c1C | i | 0.79
O=C(Nc1ccc(F)c(Cl)c1)C1CCCN(c2cnccn2)C1 (stereo not given) | i | 0.96
O=C(COC(=O)c1ccc(S(=O)(=O)NCc2ccco2)cc1)Nc1ccc(Cl)cn1 | i | 0.16
CCCCn1c(SCC(=O)N2c3ccccc3Sc3ccccc32)nc2c1c(=O)n(C)c(=O)n2C | i | 1.1
CCOC(=O)C(NCc1ccccc1OC)(NC(=O)c1ccccc1)C(F)(F)F (stereo not given) | i | -0.57
Cc1ccc2c(c1)[C@H]1OCC[C@H]1[C@@H](c1ccncc1)N2 | i | 0.09
O=C(OCn1ncc(Br)c(Br)c1=O)c1c(F)cccc1F | i | 0.03
Cc1cc(C)c(NC(=O)CN(c2ccccc2)S(=O)(=O)N(C)C)c(C)c1 | -5.6* | -1.9*
O=C(C1=C(O)C(=O)N(CCCN2CCOCC2)C1c1ccc(Cl)cc1)c1cc2ccccc2o1 (stereo not given) | i | -0.46
CSc1nc2c(c(=O)n1Cc1ccccc1)SC(C)C2 (stereo not given) | i | 0.88
C=CCNC(=O)CN1CCN(Cc2ccc3c(c2)OCO3)CC1 | i | -0.01

The list goes on.
mol | KCNQ2 block | KCNQ2 block baseline
CC(CNC(=O)Cn1ccc2cc(S(=O)(=O)N3CCCC3)ccc21)c1ccccc1 (stereo not given) | i | -1.8
COc1ccc(/C=C2/C(=N)N3N=C(CC(=O)N4CCCC4)SC3=NC2=O)cc1OC | i | 1
O=C(Nc1ccccc1O)C(c1ccccc1)c1ccccc1 | -6.5* | -1.2*
CC(=O)c1ccc(OCCCC(=O)OCC(=O)N2CCN(c3ccccc3)CC2)cc1 | i | 0.1
CC1(C)CC(=O)C2=C(C1)N(c1ccc(F)cc1)C(=O)C2(NC(=O)c1ccccc1F)C(F)(F)F (stereo not given) | i | 2.1
CCC1CCCCN1C(=O)CSc1nnc(CNC(=O)c2c(F)cccc2Cl)o1 (stereo not given) | i | 4.7

Part of the list above, with values under each structure:
Below each SMILES: KCNQ2 block | KCNQ2 block baseline
O=C(Nc1ccc(F)c(Cl)c1)C1CCCN(c2cnccn2)C1 (stereo not given)
 : i | 0.96
O=C(COC(=O)c1ccc(S(=O)(=O)NCc2ccco2)cc1)Nc1ccc(Cl)cn1
 : i | 0.16
CCCCn1c(SCC(=O)N2c3ccccc3Sc3ccccc32)nc2c1c(=O)n(C)c(=O)n2C
 : i | 1.1
CCOC(=O)C(NCc1ccccc1OC)(NC(=O)c1ccccc1)C(F)(F)F (stereo not given)
 : i | -0.57
Cc1ccc2c(c1)[C@H]1OCC[C@H]1[C@@H](c1ccncc1)N2
 : i | 0.09
O=C(OCn1ncc(Br)c(Br)c1=O)c1c(F)cccc1F
 : i | 0.03
Cc1cc(C)c(NC(=O)CN(c2ccccc2)S(=O)(=O)N(C)C)c(C)c1
 : -5.6* | -1.9*
O=C(C1=C(O)C(=O)N(CCCN2CCOCC2)C1c1ccc(Cl)cc1)c1cc2ccccc2o1 (stereo not given)
 : i | -0.46
CSc1nc2c(c(=O)n1Cc1ccccc1)SC(C)C2 (stereo not given)
 : i | 0.88
C=CCNC(=O)CN1CCN(Cc2ccc3c(c2)OCO3)CC1
 : i | -0.01
CC(CNC(=O)Cn1ccc2cc(S(=O)(=O)N3CCCC3)ccc21)c1ccccc1 (stereo not given)
 : i | -1.8
COc1ccc(/C=C2/C(=N)N3N=C(CC(=O)N4CCCC4)SC3=NC2=O)cc1OC
 : i | 1
O=C(Nc1ccccc1O)C(c1ccccc1)c1ccccc1
 : -6.5* | -1.2*

Screens as filed in PubChem.
